Mtb hypoxia inh = inhibitors of hypoxia-regulated fluorescent reporter in Mycobacterium tuberculosis; M. tuberculosis hypoxia-regulated fluorescent reporter, fluorescence; fluorescence inhibition, % (test concentration not listed); actives 0.1% (n = 300,000);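 active = 35 to 45% if threefold the growth effect, above 45% if 1.5-fold the growth effect; inactive = the rest, general growth blockers included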;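 also: wells of about 50 µL received 100 nL stock; 0% = vehicle wells and 100% = reference inhibitor wells; whole bacteria with a GFP reporter of the hypoxia response; strong numbers were not always called active; many hits fall short of the cut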
BJeLR viability = kills HRASV12-expressing BJeLR cells. actives 0.17% (n = 300,000). BJeLR (HRASV12) viability, CellTiter-Glo ATP luminescence, 48 h; reference of the scale not given here. inhibition, % (concentration not given with the values);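 active = replicate mean above 50%; inconclusive = above 50% but judged a plate artefact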;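 also: 50 nL library stock added to about 25 µL; numbers are from one replicate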
Bead autofluor = compound fluorescence in toxin protease inhibitor counterscreen. fluorescence intensity (concentration not given with the values). AID 624483. compound autofluorescence counterscreen, microsphere flow cytometry; stronger effect = higher value. actives 3.1% (n = 360,000);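 active = at least 3 SD above the mean of all compounds, about 16000 in these data; inconclusive = too few beads counted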;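 also: 100 nL of 1 mM stock went into each well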
Sa ugtP lethal = compounds lethal to S. aureus RN4220 ugtP deletion mutant. OD600 growth, 16 h; some inactives read as strong as hits. growth inhibition, % (no concentration beside the values). actives 0.54% (n = 330,000). AID 1259309;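 active = z-score under -3 and OD600 up to 0.15 on both plates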;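 also: plate controls were untreated wells for no effect and antibiotic for full effect; wells of about 80 µL received 100 nL stock; the first replicate is given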
RN4220 kill = S. aureus RN4220 growth inhibition; OD600, 16 h; inhibition, % (concentration not given with the values); actives 0.33% (n = 330,000);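 active = z-score of -3 or lower and OD600 up to 0.18 on both plates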;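 also: plate controls were untreated cells for no effect and reference antibiotic for full effect; stock transfer was 100 nL into about 80 µL; one replicate is shown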
PrP UTR inh = inhibition of PrP 5' UTR reporter expression | inhibition, % (concentration not given with the values) | cell-based PrP 5' UTR mRNA reporter, plate reader | actives 0.35% (n = 340,000);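 active = every replicate at 50% or more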;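 also: 0 = median of the neutral control wells; tested in H4 reporter cells; numbers are from one replicate; inactives centre near -14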
Mtb hypoxia inh growth = also measured in Mtb hypoxia inh; calls as there; growth inhibition, %; measured here: M. tuberculosis growth (absorbance);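 0% = vehicle and 100% = reference antibiotic; read after six days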
* hit, by the source's call; ? = inconclusive; · = not tested or not shown. No enrichment for hits (roughly 4% active in at least one column).

SMILES	Mtb hypoxia inh	Mtb hypoxia inh growth	BJeLR viability	Bead autofluor	Sa ugtP lethal	RN4220 kill	PrP UTR inh
CC(=O)N1CCCc2cc(S(=O)(=O)N3CCCC(C(=O)NCc4ccc(Cl)cc4)C3)ccc21 (stereo not drawn)	-0.6	-4.1	13.1	5798	3.8	1.6	-14.0
O=C(COC(=O)Cc1cccs1)NCC(=O)Nc1ccc(F)cc1	33.4*	73.4*	·	3858	2.3	5.2	-19.8
Cn1c(=O)[nH]c(=O)c2c1nc(N1CCCCCC1)n2CCSc1nc2ccccc2[nH]1	5.5	2.4	1.2	?	-5.9	-7.1	1.0
O=C(CCc1nnc(COc2ccccc2)o1)NCc1ccccc1	9.2	1.1	-2.5	4465	2.8	4.2	2.4
COc1cccc(NC(=O)CN(C)C(=O)c2ccc(N3CCCCC3)c([N+](=O)[O-])c2)c1	-2.2	0.1	·	8824	-0.2	1.6	-10.0
CC(=O)N(CC1CCCO1)C1(C(=O)NC2CCCC2)CCCCC1 (stereo not drawn)	·	·	6.5	2600	-3.4	-2.6	9.0
Cc1ccc(C2(C)NC(=O)N(CC(=O)N3CCN(C(=O)c4cccs4)CC3)C2=O)cc1 (stereo not drawn)	6.7	0.6	·	7602	6.0	4.9	6.5
COc1ccc(/C=C(/C#N)C(=O)Nc2cc(C)ccc2C)cc1C(=O)O	-2.0	-4.2	9.6	2507	-3.2	-15.5	-8.3
Cc1ccc(C=NNC(=O)C(C)NC(=O)c2ccccc2)cc1 (stereo not drawn)	-6.9	9.2	·	·	-2.2	-1.6	·
CCC(c1nnnn1C1CCCCC1)N1CCN(C(=O)c2ccco2)CC1 (stereo not drawn)	0.6	3.6	-4.3	3731	3.5	0.3	-26.4
CC(=O)Oc1ccc(C=NNS(=O)(=O)c2ccc(C)cc2)c(OC(C)=O)c1	-3.9	8.0	·	·	11.3	1.3	·
CC(=O)OC1CCC2(C)C3=CCC4(C)C(C(C)=O)=CCC4C3CCC2C1 (stereo not drawn)	8.0	8.0	·	2914	11.4	4.8	-30.5
CCCN(CCC)CC(O)COc1ccc2c(c1)OCO2 (stereo not drawn)	13.3	10.3	-0.1	4317	4.3	3.5	-41.8
FC(F)(F)c1ccc(Cl)c(NC(=S)NN=Cc2ccccc2C(F)(F)F)c1	-1.4	11.4	·	·	86.1*	5.6	·
CS(=O)(=O)N(CC(=O)N1CCOCC1)c1ccc(Cl)cc1	1.9	-11.9	-19.4	4056	4.1	3.4	-21.3
O=C(CCCCCNC(=O)N1CCn2c1nc1ccccc12)N[C@@H](Cc1ccccc1)C(=O)O	·	·	-2.8	4159	-1.5	1.3	-18.7
COc1ccccc1Cn1c(=S)[nH]c2cc(C(=O)NCC(OC)OC)ccc2c1=O	-2.2	1.3	0.0	4238	-5.8	2.6	-17.5
CSc1ccc(Cc2ccc(Cl)cc2Cl)nn1	20.9	10.4	4.6	6744	8.4	3.6	-29.5
C=CCNC(=S)NNC(=O)CCC(O)COCCC(C)C (stereo not drawn)	15.4	2.0	6.2	4040	15.1	3.4	-13.7
COc1ccc(N2CCN(CCNC(=O)CCS(=O)(=O)c3cccc4nsnc34)CC2)cc1	1.3	0.1	-8.7	·	2.8	4.6	·
CCCCN1CCC(=O)C(C(=O)OCC)=C1C(=O)OCC	-2.3	1.5	·	3582	-0.1	0.2	-17.2
COC(=O)c1ccccc1OCCOc1ccccc1C(=O)OC	·	·	-5.5	3267	5.2	3.6	-23.1
NC(=O)c1cc(NC(=O)CCCc2nc3ccccc3s2)cc(C(N)=O)c1	-5.2	-7.2	-2.4	3613	0.9	0.4	-13.6
CC(NC(=O)COC(=O)c1c[nH]c2ccccc12)c1ccccc1 (stereo not drawn)	6.2	8.0	·	2713	5.7	1.2	-5.2
CCCCc1nc(Cl)c(C#N)c2c1CCCC2	-0.1	0.9	6.3	2516	13.0	1.3	-6.9

Structural class: the entries above with a cyano group
SMILES	Mtb hypoxia inh	Mtb hypoxia inh growth	BJeLR viability	Bead autofluor	Sa ugtP lethal	RN4220 kill	PrP UTR inh
COc1ccc(/C=C(/C#N)C(=O)Nc2cc(C)ccc2C)cc1C(=O)O	-2.0	-4.2	9.6	2507	-3.2	-15.5	-8.3
CCCCc1nc(Cl)c(C#N)c2c1CCCC2	-0.1	0.9	6.3	2516	13.0	1.3	-6.9

(next part)
SMILES	Mtb hypoxia inh	Mtb hypoxia inh growth	BJeLR viability	Bead autofluor	Sa ugtP lethal	RN4220 kill	PrP UTR inh
O=C1CCCN1CCC(=O)N1CCCC(N2CCN(c3ccccc3F)CC2)C1 (stereo not drawn)	-22.1	-10.2	-4.5	6319	-6.9	-2.1	-0.3
CN(C(=O)c1ccccc1Br)C1CCS(=O)(=O)C1 (stereo not drawn)	2.9	4.9	5.9	6206	-0.8	-1.0	-15.5
COc1ccc(NC(=O)c2cc3c(=O)n(C)c4ccccc4c3s2)cc1OC	-0.4	-5.6	5.3	2606	-12.6	0.9	-6.2
Cc1cc(C)c2c(c1)c1nnc(SCCN3CCOCC3)nc1n2C	·	·	21.6	4480	3.3	1.1	-17.2
COc1ccc2nc(Nc3nc4ccc(NC(C)=O)cc4s3)sc2c1	·	·	1.6	2426	·	·	-14.4
CCC(=O)N1CCN(c2ccc(NC(=O)c3cc4ccccc4o3)cc2Cl)CC1	·	·	1.5	3251	-5.8	-3.4	-18.7
Cc1cccc(OC(=O)c2sc(Cl)nc2C)c1	3.5	0.6	-2.4	8983	12.3	5.5	-22.0
Cc1ccc(C(=O)CC2SC(N)=NC2=O)cc1 (stereo not drawn)	16.3	13.6	7.8	5919	4.9	2.4	-32.3
COc1cc(NC(=O)CN(C)S(=O)(=O)c2ccc3c(c2)CC(C)N3C(C)=O)cc(OC)c1 (stereo not drawn)	5.1	-2.1	2.5	5857	0.4	3.0	-12.7
CC(=O)Nc1c(C(=O)N2CCOCC2)cnn1-c1ccc(C)c(C)c1	·	·	2.8	2752	6.7	6.3	-10.3
CCC(=O)N(Cc1cc(=O)[nH]c2ccccc12)c1ccc(C)cc1C	0.5	-0.6	15.0	4059	-11.4	7.9	-37.2
CCOC(=O)CSc1nc2cc(C(=O)NCC3CCCO3)ccc2c(=O)n1Cc1ccco1 (stereo not drawn)	3.6	11.4	1.5	22243*	0.8	-0.9	-2.8
CCOc1cc(C(=O)Nc2cccc3ncccc23)cc(OCC)c1OCC	6.0	6.4	-3.2	20303*	-1.3	-0.4	-10.0
COc1cccc2cc(-c3nnc(SCC(=O)Nc4ccc(NC(C)=O)cc4)n3C)oc12	-5.0	-2.3	-1.2	3630	2.0	-1.1	-11.9
CCOc1ccccc1N1CCN(C(=O)c2ccccc2OCc2c(C)noc2C)CC1	-7.6	6.5	·	5005	-10.2	-1.6	-24.0
CC(=O)NCCC(=O)Nc1cc(S(=O)(=O)N2CCCCC2)ccc1N1CCN(C)CC1	7.7	-1.0	8.4	3884	6.3	2.2	-19.8
O=C(NCCN1CCOCC1)c1cccn2c(=O)c3c4c(sc3nc12)CCCC4	9.9	17.3	-7.0	·	11.8	7.1	·
COC1CCCCC1Nc1cc(C)cc(C)c1 (stereo not drawn)	13.8	10.5	-4.6	7834	5.3	8.1	-10.1
O=C(CSC1=NS(=O)(=O)c2ccccc2N1)Nc1ccccc1F	3.8	3.4	-2.7	4073	4.6	0.4	-15.9
CCOC(=O)CSc1nnc(CNC(=O)c2cc(OC)c(OC)c(OC)c2)n1C	-11.1	0.5	3.4	11389	0.4	0.4	-36.9
Cc1ccc(C)c(Cn2c3ccccc3c3cnn(CC(=O)NCCN4CCOCC4)c(=O)c32)c1	0.9	8.0	3.6	5828	5.2	2.0	1.1
O=S(=O)(Cc1ccccc1)N1CCCC1	10.0	1.7	-5.6	11051	-1.3	7.6	-15.7
CCCc1c(C(=O)NN=Cc2ccc(OCc3ccccc3)c(OC)c2)nnn1-c1nonc1N	-0.5	15.0	·	·	-12.9	7.2	·
Cc1cc(C)n(CCNC(=O)CC2C(=O)NCCN2CC2CCCCC2)n1 (stereo not drawn)	8.7	7.3	-10.5	2187	11.8	3.3	-14.2
Cc1onc(-c2ccccc2Cl)c1C(=O)N1CCN(S(=O)(=O)c2ccc(F)c(F)c2)CC1	-6.0	-8.5	6.5	·	2.4	3.6	-14.9

Grouped by structure: the compounds so far containing two or more sulfur atoms.
SMILES	Mtb hypoxia inh	Mtb hypoxia inh growth	BJeLR viability	Bead autofluor	Sa ugtP lethal	RN4220 kill	PrP UTR inh
COc1ccc(N2CCN(CCNC(=O)CCS(=O)(=O)c3cccc4nsnc34)CC2)cc1	1.3	0.1	-8.7	·	2.8	4.6	·
COc1ccc2nc(Nc3nc4ccc(NC(C)=O)cc4s3)sc2c1	·	·	1.6	2426	·	·	-14.4
O=C(CSC1=NS(=O)(=O)c2ccccc2N1)Nc1ccccc1F	3.8	3.4	-2.7	4073	4.6	0.4	-15.9

(more compounds)
SMILES	Mtb hypoxia inh	Mtb hypoxia inh growth	BJeLR viability	Bead autofluor	Sa ugtP lethal	RN4220 kill	PrP UTR inh
CC(C)c1nnc(NC(=O)CSc2nc3ccccc3[nH]2)s1	0.8	9.0	2.6	4325	6.7	0.6	-29.2
OC(c1ccc(Cl)cc1)c1nccc2ccccc12 (stereo not drawn)	-4.2	-4.5	-2.4	3679	2.2	0.9	-26.8
Cc1cc(C)c2cc(CN(CCO)C(=O)Nc3ccc(Cl)cc3)c(=O)[nH]c2c1	-3.2	3.6	2.2	·	-10.7	7.7	·
Cc1ccc(Cn2ncc3c(N4CCN(C)CC4)ncnc32)cc1	-2.6	9.9	3.8	4200	0.9	-2.6	-20.1
O=C(CSc1nc2ccccc2n1-c1ccccc1)Nc1ncc(Cl)cc1Cl	8.8	6.5	20.7	11810	-10.8	4.6	-4.7
CCN1C(=O)C(=Cc2cc(C)n(C3CC3)c2C)C(=O)N(CC)C1=S	1.2	6.1	-8.1	2840	-3.2	7.3	2.8
O=C(COc1ccccc1)Nc1ccc(S(=O)(=O)NCc2ccco2)cc1	6.2	8.1	4.3	?	1.5	1.8	-16.4
CCn1c(SCC(=O)Nc2cc(NC(C)=O)ccc2OC)nnc1-c1ccccn1	11.9	5.1	-4.1	10614	-1.2	3.3	-7.0
O=C(CN1CCOCC1)Nc1c2c(nc3c1CCC3)CCC2	·	·	3.0	2546	-0.2	-1.2	-9.5
O=C(NCC(c1cccnc1)N1CCN(c2ccc(F)cc2)CC1)c1ccc(F)cc1 (stereo not drawn)	11.6	8.0	-1.3	2698	2.9	-11.1	-6.6
COC(=O)c1cc(-c2c(C)oc3cc(O)ccc3c2=O)c(C)o1	4.1	3.6	-2.3	10432	0.8	6.5	-18.8
CC1CC(=O)Nc2ccccc2N1S(=O)(=O)c1cccc(F)c1 (stereo not drawn)	-5.1	5.4	-4.9	·	-3.4	-0.3	·
O=C(c1ccco1)N1CCN(c2ccc([N+](=O)[O-])cn2)CC1	-7.4	4.9	5.2	5887	-3.3	-1.7	-12.8
Cc1ccc(C(=O)N/C(=C/c2cccs2)C(=O)N2CCCCCC2)cc1	9.6	10.3	1.2	12463	12.0	5.1	-30.1
O=C(NCc1ccccc1)c1ncn[nH]1	11.5	7.6	2.4	4737	4.9	2.9	-7.8
NC(=NOS(=O)(=O)c1ccccc1)c1ccncc1	1.4	1.3	·	·	-5.5	-1.1	·
COc1ccc(CNC(=O)CN(C(=O)c2csnn2)c2cccc(F)c2)cc1	2.8	3.1	-4.6	3623	4.3	0.9	-16.4
C=CCOc1c(CNc2ccc(S(N)(=O)=O)cc2)cccc1OC	·	·	-3.0	2847	15.8	1.0	-19.0
CC(=O)Oc1ccc(C2(C)CC(C)(C)Oc3cc(OC(C)=O)ccc32)c(OC(C)=O)c1 (stereo not drawn)	-2.5	2.5	-0.6	3394	-5.4	8.2	-2.1
Cc1ccc(C)c(S(=O)(=O)N2CCN(C(=O)c3sccc3C)CC2)c1	·	·	-8.8	4559	·	·	0.5
COc1ccc(CN(C)C(C)C(=O)NC2CCCc3ccccc32)cc1 (stereo not drawn)	-5.4	7.7	-21.7	4345	9.2	11.2	-23.1
COc1ccccc1OCc1ccc(C(=O)Nc2ccncc2)o1	6.9	-4.4	9.2	10647	4.7	1.6	-11.8
Cc1ccc(N(CCC(=O)O)S(=O)(=O)c2ccc(C)cc2)cc1	1.3	11.3	-4.9	2120	3.0	4.4	-24.6
CCOc1ccccc1N1CC(C(=O)NC2CCCCCC2)CC1=O (stereo not drawn)	0.3	3.4	·	2990	1.7	1.3	1.1
Cc1nc2ccccc2n1CC(=O)OCC(=O)NCc1ccccc1	4.6	21.2	-8.0	5309	3.1	1.9	15.0

Bioassay records from PubChem.
